VACV E9 pol inh: inhibitors of vaccinia virus processive DNA synthesis (E9 polymerase). in vitro processive DNA synthesis, absorbance read-out; active compounds read low; some inactives read as strong as hits. normalized absorbance, % (test concentration not listed). hit rate 0.94% among 46,000. AID 493162;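 active = replicate mean up to 90% and picked by the depositor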;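 also: 100% = median of the test wells of a plate; 100 nL library stock went into each well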
* = called active by the depositor. A portion of the library, so the mix of outcomes need not match the whole.

Start of the listing, in advance:
molecule,VACV E9 pol inh
Nc1ccc(Br)cc1C(O)c1ccccc1Cl (stereo unspecified),99
CC1(C)Oc2ccc(C#N)cc2[C@@H](OC2=CC(=O)CC2)[C@@H]1O,101

Main list, from the start:
molecule,VACV E9 pol inh
Nc1ccc(Br)cc1C(O)c1ccccc1Cl (stereo unspecified),99
CC1(C)Oc2ccc(C#N)cc2[C@@H](OC2=CC(=O)CC2)[C@@H]1O,101
O=C(c1ccc(F)cc1)N1CCCCC(Sc2ncnc3sc4c(c23)CCC4)C1=O (stereo unspecified),100
CN1CC(=O)N=C1N,100
N#CC1=C(C2CC2)CC(c2ccccc2)C(C#N)=C1N (stereo unspecified),100
CCOC(=O)CSc1nc(C)cc(=O)[nH]1,86
COc1ccc(N2C(=O)CCC(C(=O)N3CCN(c4ccccc4)CC3)C2c2ccc(F)cc2)cc1 (stereo unspecified),88
NC1=NC(=O)C(CC(=O)Nc2ccc(Cl)c(C(F)(F)F)c2)S1 (stereo unspecified),103
CCc1ccc(NC(=O)C23CC4CC(CC(C4)C2)C3)cc1,98
O=C(COc1ccccc1)NCc1ccc2[nH]c3c(c2c1)CCCC3,100
CCOc1cc(C2c3c(oc4ccc(F)cc4c3=O)C(=O)N2CCc2ccc(OC)cc2)ccc1O (stereo unspecified),110
CCc1ccc(NC(=O)CSC2=C(C#N)C3(CCCCC3)C(C#N)C(=O)N2)cc1 (stereo unspecified),97
Nc1nc2c(c(Nc3ccccc3)n1)C(=O)CC(c1ccccc1)C2 (stereo unspecified),104
COc1ccc(OC)c(S(=O)(=O)c2c(OC)ccc(OC)c2C(=O)O)c1,101
O=S(=O)(c1ccc(Nc2nc3ccccc3n3nnnc23)cc1)N1CCOCC1,106
CCOc1ccc2nc(Nc3ncc4c(n3)CCCC4=O)nc(C)c2c1,100
CC(=O)N1c2ccccc2NC2=C(C(=O)CCC2)C1c1ccc(Cl)cc1 (stereo unspecified),100
N#CC(C#N)=NNc1ccc(OC(F)(F)F)cc1,99
Brc1ccccc1OCc1nc2ccccc2[nH]1,101
Cc1cccc(N=Cc2c(C)c(C#N)c3[nH]c4ccccc4n3c2=O)c1C,100
CC1=NN(c2ccccc2)C(=O)/C1=C/c1cn(CC(O)CN2CCCCC2)c2ccccc12 (stereo unspecified),32*
COc1cc(C(F)(F)F)c(C(=O)N(C)Cc2ccccc2Cl)cn1,83
Cc1noc(C)c1COc1ccc2ccc(=O)oc2c1,96
OC(COc1ccc2c(c1)CCC2)CN1CCCCC1 (stereo unspecified),100
O=C(NCc1ccccc1)c1cccc2c1C(=O)N(C1CCCCC1)C2,96
CCc1cccc(C)c1NC(=O)CCC(=O)N1CCOc2ccccc21,104
O=C(Cn1sc2ccccc2c1=O)N1CCN(c2ccccc2)CC1,101
CCCC1CC(c2csc(C)n2)CCO1 (stereo unspecified),105
CN(C(=O)C1CC(c2ccccc2F)=NO1)c1ccccc1 (stereo unspecified),100
Cc1cc(OCC(N)=O)c(C(C)C)cc1Cl,86
CC(C)(C)c1nc2scc(-c3ccc(Cl)cc3)n2n1,100
CCC(C)C(=O)O[C@H]1[C@H](O)C2C(CN3CC(C)CCC3[C@@]2(C)O)C2C[C@]34O[C@]5(O)C(OC(=O)C(C)(O)CC)CC[C@@]3(C)C5C(OC(C)=O)[C@@H](OC(C)=O)C4[C@@]21O (stereo partly specified),100
Nc1ccc(Sc2nc3ccccc3s2)c(Cl)c1,103
CC(C)(C)C(=O)Nc1ccccc1C(=O)NCc1cccnc1,108
C=CCN(CC=C)C(=O)c1cc(-c2ccccc2)nc2ccccc12,100
CC(C)Sc1nnc(NC(=O)C(C)C)s1,101
Cc1ccc2c(CNCCc3ccco3)c(C(=O)O)n(Cc3ccccc3)c2c1,98
O=C(CCc1ccccc1)NC(c1ccc2c(c1)OCO2)c1c(O)ccc2ccccc12 (stereo unspecified),90
CCSc1ncnc2sc3c(c12)CCC3,98
CC1CC(C)(C)NC(=S)N1CCC(=O)N1CCc2ccccc2C1 (stereo unspecified),105
COC(=O)c1cccc(C(=O)Nc2ccc(F)cc2)n1,100
CCCN1C/C(=C/c2ccsc2)C(=O)/C(=C/c2ccsc2)C1,102
O=C1OC(Nc2ccccc2)c2ccccc21 (stereo unspecified),99
Cc1ccc(-c2cn3ccccc3n2)cc1,99
COc1ccc(NC(=O)C(C)Oc2ccc3c(C)c(CCC(C)C)c(=O)oc3c2)cc1 (stereo unspecified),102
Cc1cc(=O)n2[nH]c(S(C)(=O)=O)nc2n1,101
CC(=O)Nc1c(-c2cccs2)nc2ncccn12,120
Cc1nc2ncnn2c(C)c1Cc1c(Cl)cccc1Cl,113
c1csc(CNc2ccc(NCc3cccs3)cc2)c1,90
Cc1nc(-c2nnc(-c3ccccc3)o2)c(C(F)(F)F)o1,100

Going on with the list.
molecule,VACV E9 pol inh
Cc1ccccc1N=C1Nc2ccc3ccccc3c2C1=O,100
COc1ccc(-c2cc(C(F)(F)F)n3ncc(C(=O)NC(C)(C)C)c3n2)cc1,104
O=C(NCCc1ccccc1)c1cccc(N2C(=O)C3CC=CCC3C2=O)c1 (stereo unspecified),101
O=C(Nc1ccc(Br)c(Cl)c1)C1CC1,98
Cc1cccc(OCC(=O)NC(Cc2c[nH]c3ccccc23)C(=O)O)c1 (stereo unspecified),99
Cc1sc(NC(=O)c2ccco2)c(C(c2cccnc2)N2CCCCC2)c1C (stereo unspecified),98
CC1CCCC(NC(=O)COC(=O)c2cccc(Br)c2)C1C (stereo unspecified),101
CCN1CCN(C(=O)C2CCCN(c3nn4cc(-c5ccc(OC)cc5)nc4s3)C2)CC1 (stereo unspecified),94
OC1(C(F)(F)F)CC(c2ccc(F)cc2)=NO1 (stereo unspecified),100
CCCCn1c(CNC(=O)c2ccc(OC)cc2)nnc1SC,102
Cc1sc2ncnc(NCc3ccc4c(c3)OCO4)c2c1C,90
CCOc1ccccc1C1C(C(=O)OC)=CN(CC23CC4CC(CC(C4)C2)C3)C=C1C(=O)OC,97
COc1cccc(S(=O)(=O)N2CCCC2)c1,98
COc1cc(OCc2ccccc2)ccc1CN1CCN(c2ccc(C(F)(F)F)cn2)CC1,105
COc1ccc(/C=C2\SC(=S)N(/N=C/c3ccc(OC)cc3)C2=O)cc1,100
O=C(CSCc1ccc(Cl)c(Cl)c1)Nc1c[nH]c(=O)[nH]c1=O,99
N/C(=N/O)c1ccccc1,98
COc1ccccc1NC(=O)C1CCN(c2nn3cc(-c4ccc(C)cc4)nc3s2)CC1,94
Fc1ccc(CSc2nc3ccccc3o2)cc1,100
CC(C)(C)NC(=O)Nc1cc(C(F)(F)F)cc(C(F)(F)F)c1,98
COc1ccc(C2C(C#N)=C(O)NC(=O)C2[n+]2ccccc2)cc1OC (stereo unspecified),100
NS(=O)(=O)c1ccc(N2C(=O)C3C4C=CC(C4)C3C2=O)cc1 (stereo unspecified),103
Cc1cc(NC(=O)c2cccs2)n(-c2ccccc2)n1,101
CCOc1cc(=O)oc2ccc(Cl)cc12,108
NC(=O)CC1Nc2ccccc2NC1=O (stereo unspecified),100
O=C(CSc1ncnc2sc3c(c12)CCCC3)OC1CCCCC1,104
O=C1CCCN2N=C(SCc3ccc(C(F)(F)F)cc3)SC2=N1,101
Cn1cc(C2CC(=O)N(c3ccc(O)cc3)C2=O)c2ccccc21 (stereo unspecified),102
O=C(COc1cccc(Br)c1)NCC1CCCO1 (stereo unspecified),108
CC(C)NC(=O)c1ccc(N2CCCC2=O)cc1,102

Part of the list above in another layout.
SMILES: Cc1cc(NC(=O)c2cccs2)n(-c2ccccc2)n1
  VACV E9 pol inh: 101
SMILES: CCOc1cc(=O)oc2ccc(Cl)cc12
  VACV E9 pol inh: 108
SMILES: NC(=O)CC1Nc2ccccc2NC1=O (stereo unspecified)
  VACV E9 pol inh: 100
SMILES: O=C(CSc1ncnc2sc3c(c12)CCCC3)OC1CCCCC1
  VACV E9 pol inh: 104

Other results follow.
molecule,VACV E9 pol inh
O=C(COc1ccc(Cl)cc1)NCc1ccc2[nH]c3c(c2c1)CCCC3,101
O=C(CC1CCCC1)OCCN1CCCC1=O,69
N#CC1=C(N)Oc2c(sc3ccccc23)C1c1ccccc1 (stereo unspecified),106
Cc1cccc(-n2cnc3cc(C(=O)N4CCCCC4)ccc32)c1,98
CCC(C)OC(=O)COc1ccc2c(=O)c(Oc3cc(C)ccc3C)coc2c1 (stereo unspecified),100
Cc1ccc2c(c1)c1c(n2CC(O)Cn2ccnc2C)C(=O)CCC1 (stereo unspecified),87
COCCN(C(=O)Nc1ccc(Cl)c(Cl)c1)C1CCN(C(C)C)CC1,87
CCCC(=O)N1CCC(c2ccc(OC)cc2)=N1,101
CCOC(=O)C1=C(C)N(C)C2(C)CC1c1ccccc1O2 (stereo unspecified),101
C=CCN(c1nccs1)S(=O)(=O)c1ccc(C)cc1,94
O=C(CSc1nc2ccccc2s1)c1ccccc1,92
Cc1ccc(S(=O)(=O)Nc2ccc(N3CCCCC3)cc2)cc1Cl,124
CN(C)c1cc(Cl)nc(N(C)C)c1C#N,123
COc1ccc(S(=O)(=O)c2cc(NS(=O)(=O)c3ccccc3)cc(C(C)C)c2O)cc1,99
COc1cc(CN(C(=S)NCC(=O)O)C2CCCC2)cc(OC)c1OC,104
Oc1ccccc1C=Nc1ccccc1C(F)(F)F,100
COc1c2c(c(CSc3nnnn3-c3ccccc3)c(OC)c1OC)C(=O)OC2,100
COCC(=O)N(Cc1cc2cccc(C)c2[nH]c1=O)c1ccccc1,109
CCCCN(C(C)C)S(=O)(=O)c1ccc(C)cc1,89
O=C(COC(=O)c1cccs1)c1ccc(Cl)cc1,101
O=C(Cn1ncc2c1-c1ccccc1OC2)N1CCCc2ccccc21,92
O=CN1CCN(C(=O)Cc2ccc(Cl)cc2)CC1,104
O=C(C1CCC1)N1CCN(c2ccnc3cc(Cl)ccc23)CC1,111
CCc1ccc2c(c1)c1n[nH]c(=S)nc1n2C,100
CCOC(=O)n1ncc(C#N)c1N,100
COc1ccc(NC(=O)CSc2c[nH]c3ccccc23)c(OC)c1,100
O=C(NC1CCN(Cc2cccc3ccccc23)CC1)c1ccccc1,110
CCc1cccc(NC(=O)C2CCCN(S(=O)(=O)c3cccnc3)C2)c1 (stereo unspecified),93
CCC(=O)N1CCN=C1SC,102
O=C(OCC(=O)c1cc(Cl)ccc1Cl)c1cccc(O)c1,90
CC(C)c1cccc(C(C)C)c1NC(=O)c1ccc2ncccc2c1,101
Cc1cc(N)nc2nc(C(F)(F)F)nn12,102
CC12CC3CC(C1)CC(NC(=O)c1ccc(Cl)cc1Cl)(C3)C2,99
Cc1cc(C)c2c(N)c(C(=O)Nc3ccccc3)sc2n1,100
COc1ccc(C(=O)NCCn2ccc3ccccc32)c(OC)c1,100
Cc1cccc(NCN2C(=O)C3C4C=CC(C4)C3C2=O)c1 (stereo unspecified),100
COc1ccc(CC(=O)NN2CCN(c3ccccc3)CC2)cc1,102
C=CCN1C(=O)C(Cc2cccc(Cl)c2)SC1=Nc1ccc(C(=O)O)cc1 (stereo unspecified),100
CC(C)CCNc1ncnc2c1sc1nc3c(cc12)COC(C)(C)C3,99
Cc1cccc(-c2oc(C)c(C)[n+]2[O-])c1,101
COc1ccccc1NC(=O)c1cc(S(=O)(=O)N2CCCCC2)ccc1F,100
O=C1C(c2sc(=S)n(-c3ccccc3)c2O)=Nc2ccccc21,96
CC1=NNC(=O)C1CCc1ccncc1 (stereo unspecified),104
CCC(=O)N1CCc2cc(Br)cc(S(=O)(=O)CCC(=O)NCC3CCCO3)c21 (stereo unspecified),102
CC(NS(=O)(=O)N(C)C)c1ccccc1 (stereo unspecified),101
CN(C(=O)CSc1ccccc1C(=O)O)C1CCCCC1,101
C/C=C/C(=O)Nc1ccc(-c2nc3ccc(C)cc3s2)cc1,105
Cc1nc2ccccc2nc1Oc1ccc(Cl)c(F)c1,105
Cc1cc(C)nc(Nc2ccc(C(=O)OCC(C)C)cc2)n1,105
CN(C)Cc1c(C#N)c2ccccc2n1C,101

Additional structures follow.
molecule,VACV E9 pol inh
O=c1[nH]cnc2c1cnn2-c1ccc(C(F)(F)F)cn1,106
CC(=O)Nc1c(OC(C)=O)ccc2c(C)cc(=O)oc12,100
O=C(Cn1c(-c2cccs2)cc2ccccc21)NC1CCCCC1,88
Cc1cc(C)cc(NC(=O)c2oc3c(c2C)-c2[nH]ncc2CC3)c1,102
CCc1ccc(OCC(=O)OCCN2CCCC2=O)cc1,99
CCOc1cc(C(C#N)N2CCOCC2)ccc1OC (stereo unspecified),118
Cc1cc2cc(CNC(=O)Cc3cccs3)ccc2[nH]1,93
O=C1OC(Oc2cccc3cccnc23)(c2ccccc2)c2ccccc21 (stereo unspecified),100
CC1CCCC(C)N1C(=O)COC(=O)c1ccc(C#N)cc1 (stereo unspecified),102
CC(C)(C)C(=O)c1sc2nc3c(c(-c4cccs4)c2c1N)CCC3,101
CC(C)(C)C(=O)Nc1c2c(nn1-c1ccc(F)cc1)CS(=O)(=O)C2,101
O=C(NC1CCCCC1)c1ccc(COCC(F)(F)F)o1,100

Screening results (PubChem)
